# From PubChem BioAssay
# Measles inh: inhibitors of measles virus growth in infected cells; infected Vero cells, GFP fluorescence, 64 h; stronger effect = lower value; z-score (no concentration beside the values); hit rate 0.1% among 33,000; AID 745;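 active = z-score under -3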;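 note: score is relative to mean and SD of the compound wells of a plate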
# * marks the source's active call; other numbers are inactive results.
# Sample of the layout:
SMILES,Measles inh
COc1cccc(C2C3=C(CC(C)(C)CC3=O)Nc3ccccc3N2C(=O)Cc2ccccc2)c1 (configuration not stated),-0.8
CCOc1ccc(C(N)CC(=O)O)cc1OC (configuration not stated),-0.51

# Main list (from the top)
SMILES,Measles inh
COc1cccc(C2C3=C(CC(C)(C)CC3=O)Nc3ccccc3N2C(=O)Cc2ccccc2)c1 (configuration not stated),-0.8
CCOc1ccc(C(N)CC(=O)O)cc1OC (configuration not stated),-0.51
COC(=O)c1c[nH]n2c(NC3CCC(C)CC3)c(-c3ccc(Cl)cc3)nc12 (configuration not stated),0.81
O=C(CSc1cn(Cc2ccc(Cl)cc2)c2ccccc12)NCc1ccco1,0.09
O=C(CSc1nnc(Cc2ccccc2)o1)Nc1nc(-c2ccccc2)cs1,-0.1
Cc1sc2ncn(CC(=O)NC3CCCCCC3)c(=O)c2c1S(=O)(=O)N1CCCCC1,0.43
Cc1cc(C(=O)CSc2nnc3sc4ccccc4n23)c(C)n1CCc1ccccc1,0.1
CCN(CC)S(=O)(=O)c1cccc(C(=O)Nc2nncs2)c1,-0.69
CCOc1ccc(Oc2cc(N)cc([N+](=O)[O-])c2)cc1,1.2
CC1(C)Nc2ccccc2-c2nnc(SCc3ccccc3)nc2O1,-0.66
CCOC(=O)C1CCN(C(=O)c2ccc(N(C)C)cc2)CC1,-0.28
COc1cccc(-n2ccnc2SCC(=O)Nc2ccc(F)cc2)c1,-1.3
COc1ccc(C)cc1NC(=O)Cc1cn(C)c2ccccc12,-0.41
O=c1c2ccccc2n(Cc2cccnc2)c(=O)n1Cc1ccco1,-0.3
Cc1cc(C(=O)Nc2ccc3oc(-c4ccc(C(C)(C)C)cc4)nc3c2)ccc1[N+](=O)[O-],0.41
CC(C)c1nnc(NC(=O)CCCOc2ccc(Cl)cc2)s1,-0.13
CC(C)=C1C2C=CC1C1C(=O)N(C(C)C)C(=O)C21 (configuration not stated),-0.29
COc1cc(C(=O)N2CCN(S(=O)(=O)c3cccc([N+](=O)[O-])c3)CC2)cc(OC)c1OC,-1.2
COc1ccc(Nc2cc(C(=O)NCc3ccc(C)cc3)c3ccccc3n2)c(OC)c1,-0.69
CC1(C)C=C(CC2(C)CC(C)(C)NC(=S)N2)NC(=S)N1 (configuration not stated),1.5
CC(C)(C)C1CCc2c(sc(NC(=O)c3ccccc3F)c2C(=O)NCc2ccco2)C1 (configuration not stated),2.3
O=C1c2cccc3c(N4CCOCC4)ccc(c23)C(=O)N1CCOC(=O)C12CC3CC(CC(C3)C1)C2,1.8
CN1CCN(c2c3c(c(C#N)c4nc5ccccc5n24)CCCC3)CC1,-0.21
CCc1ccc(NC(=O)COC(=O)C2CC(=O)N(c3ccc(C)cc3)C2)cc1 (configuration not stated),-1.1
CCn1c(=N)n(CC(O)COc2ccccc2)c2ccccc21 (configuration not stated),-0.77
CCc1ccccc1Nc1cc(C(=O)NCCN2CCCCCC2)c2ccccc2n1,1.2
O=C(C1CCC1)N1CCc2cc(S(=O)(=O)N3CCn4c3nc3ccccc34)ccc21,0.97
Cn1c(Cl)cnc1C1CC(c2cc(Cl)ccc2O)=NN1 (configuration not stated),-1.6
COc1ccc(CCN2COc3ccc4c5c(oc4c3C2)C(=O)c2ccccc2C5=O)cc1OC,0.51
COc1ccc(C(=O)O)cc1S(=O)(=O)Nc1cc([N+](=O)[O-])ccc1C,-0.04
Nc1nc2ccccc2n1CCOc1ccc(Br)cc1,-1.1
N=c1n(CCN2CCOCC2)c2ccccc2n1CC(=O)c1ccco1,-0.15
COc1ccccc1N1CCN(C(=O)c2cc([N+](=O)[O-])ccc2Cl)CC1,2.5
COc1ccc([N+](=O)[O-])cc1N=Cc1cccc([N+](=O)[O-])c1,-0.03
CC(C)(C)NC(=O)c1ccc(NC(=O)Cn2c(=O)oc3ccccc32)cc1,0.21
Fc1ccc(CN2C3=NCCCN3c3ccccc32)cc1,0.75
Cc1ccccc1Cc1c(C)nc2c(C(=O)NCCc3ccc(Cl)cc3)cnn2c1C,1.1
COc1ccc(Cl)cc1NC(=O)CSc1nc(-c2ccco2)nc2c1c(=O)n(C)c(=O)n2C,-1.1
CCc1nnc(NC(=O)CSc2nc3c(cc2C#N)CCC3)s1,0.05
O=C1C2C(c3ccccc3)OC3(C(=O)c4ccccc4C3=O)C2C(=O)N1c1ccccc1 (configuration not stated),-0.47
FC(F)(F)c1nnc2ccc(N3CCOCC3)nn12,0.83
CC1(C(=O)Nc2ccccc2Cl)CC2c3ccccc3C1c1ccccc12 (configuration not stated),-0.82
COc1ccc(Br)c(C(=O)Nc2cc(C(=O)Nc3ccc(OC)c(Cl)c3)ccc2N2CC3CC(C2)c2cccc(=O)n2C3)c1 (configuration not stated),1.3
Cc1ccc(F)cc1Nc1ncnc(N)c1[N+](=O)[O-],-0.32
O=C(O)C1C2C=CC3(CN(Cc4cccs4)C(=O)C13)O2 (configuration not stated),-0.03
Cc1ccc(F)cc1Nc1ccc(C(=O)O)cc1[N+](=O)[O-],-0.15
Nc1c(C(=O)NCc2ccccc2)sc(=S)n1Cc1ccccc1,1.3
CC1CCCCN1C(=O)Cn1c(=O)sc2ccccc21 (configuration not stated),-0.08
CCOc1cc(C(NC(=O)CC)c2cc([N+](=O)[O-])c3cccnc3c2O)ccc1O (configuration not stated),-0.83
Cc1cccc(CN2C(=O)c3ccccc3Sc3ccc(C(=O)N4CCCC4)cc32)c1,-0.09
O=C(NCc1ccco1)c1ccc2c(c1)N(Cc1ccccc1)C(=O)c1ccccc1S2,-1.3
Cc1nn(-c2ccccc2)c(OC(=O)c2ccccc2[N+](=O)[O-])c1S(=O)(=O)c1ccc([N+](=O)[O-])cc1,2.1
Cc1cccc(C(=O)Nc2ccc3nc(SCC(=O)Nc4ccccc4[N+](=O)[O-])sc3c2)c1,0.45
Cc1nc2ncccn2c1-c1csc(Nc2ccccc2)n1,-0.83
Cc1nn(C(C)(C)C)c(OC(=O)c2c(-c3ccccc3Cl)noc2C)c1S(=O)(=O)c1ccccc1,-1.2
Cc1ccc2cc3cc(C(=O)NC(C)CCc4ccccc4)oc3nc2c1 (configuration not stated),-0.11
Clc1ccc(C=Nc2ccc3nc(-c4ccccc4)[nH]c3c2)cc1,-0.27
COc1ccc2c(c1)c(CC(=O)NCc1cccnc1)c(C)n2C(=O)c1ccc(Cl)cc1,-1.2
COC(=O)C1=C(C)NC2=C(C(=O)c3ccccc32)C1c1cc(OC)c(OC)cc1Br (configuration not stated),1.9
COc1ccccc1C(=O)Oc1c(S(=O)(=O)c2ccc(C)cc2)c(C)nn1-c1ccccc1,-1.1

# (cont.)
SMILES,Measles inh
Cc1cc(C)cc(NC(=O)C(=O)NC(C)c2ccccc2)c1 (configuration not stated),0.36
CC(C)N1C(=O)C(O)(CC(=O)c2cccs2)c2ccccc21 (configuration not stated),-0.09
CCn1c(C)[n+](CC(O)COc2cccc(OC)c2)c2ccccc21 (configuration not stated),1.6
Cc1nc(N2CCOCC2)c2c(C)c(C(=O)Nc3ccc(C)c(Cl)c3)sc2n1,0.14
CCOC(=O)c1c(NC(=O)c2ccc(C)cc2)sc(C(=O)Nc2cccc(Cl)c2)c1C,2.6
Cc1cccc(C(=O)Nc2sc3c(c2C(=O)N2CCN(Cc4ccccc4)CC2)CCC(C)C3)c1 (configuration not stated),1.2
Fc1ccc(CNc2ncnc3c2c(-c2ccccc2)cn3-c2ccc(F)cc2)cc1,0.84
CC(=O)NC1=NC2(O)c3ccccc3C(O)C2(O)N1 (configuration not stated),-0.45
CC(C)c1cccc(C(C)C)c1NC(=O)C(C(C)C)N1C(=O)c2ccccc2C1=O (configuration not stated),1
O=C(CN(c1cc(C(F)(F)F)ccc1Cl)S(=O)(=O)c1ccccc1)NCc1cccnc1,-0.42
COc1ccc([N+](=O)[O-])cc1NC(=O)c1cccc(C(=O)Nc2cc([N+](=O)[O-])ccc2OC)c1,-0.38
O=C1COc2ccc(Cl)cc2N1,0.06
Fc1ccccc1-c1nc(-c2ccccc2)c(-c2cccs2)[nH]1,-0.2
c1ccc(CCc2nc(-c3ccncc3)no2)cc1,-0.28
CCCn1c(=S)[nH]c2ccccc21,0.65
Nc1c(C(=O)Nc2ccc([N+](=O)[O-])cc2)sc2nc3c(cc12)C(=O)CCC3,0.48
CCCOc1cc(OCCC)c2c3c(c(=O)oc2c1)CCCC3,-0.49
CCCCCCc1ccc(C(=O)Nc2cccnc2)cc1,-1.5
COc1ccc(NC(=O)c2ccc(N3C(=O)c4ccc([N+](=O)[O-])cc4C3=O)cc2)cc1,0.02
CCC12C(=O)C(CC)(C(c3ccccc3)=C1c1ccccc1)C1C(=O)N(c3ccc(OC)cc3)C(=O)C12 (configuration not stated),-0.02
Cc1c(C#N)c2ccccc2n1CC(=O)NCc1cccs1,0.58
O=C(CSC1=Nc2ccccc2C2=NC(Cc3c[nH]c4ccccc34)C(=O)N12)c1ccc(O)c(O)c1 (configuration not stated),-0.23
CCN(CC#CC(O)(c1ccccc1)C1CCCC1)C(C)C (configuration not stated),0.21
Cc1cccn2c(=O)c3cc(C(=O)NCc4ccco4)c(=N)n(CC4CCCO4)c3nc12 (configuration not stated),-0.99
Cc1c(C(=O)Nc2ccccc2Cl)sc2ncn(Cc3ccccc3F)c(=O)c12,0.84
Cc1ccc(NC(=O)c2c(NC(=O)c3ccccc3)sc3c2CCC(C)C3)cc1 (configuration not stated),-0.68
O=C(O)CCSc1nc2ccccc2n1C1CCCCC1,-0.18
Cn1c(=O)[nH]c(=O)c2c1ncn2Cc1ccc(F)cc1,0.56
O=c1oc2cc(O)ccc2cc1-c1nc(-c2ccccc2)cs1,8.8
O=[N+]([O-])c1cccc(N2COc3ccc4ccccc4c3C2)c1,1.5
O=C(c1ccc(O)cc1)c1ccc(O)cc1O,-0.19
CCCOC(=O)C(C)Oc1ccc2c(=O)c(Oc3cc(C)cc(C)c3)c(C(F)(F)F)oc2c1 (configuration not stated),-0.82
O=C(NC1CCCCCC1)c1coc(=O)c2ccccc12,-0.73
O=C(Cc1nc2ccccc2[nH]1)NCc1ccccc1,0.27
CC(C)(C)C(=O)Nc1cccc(OC(F)(F)C(F)Cl)c1 (configuration not stated),-1.4
Cc1nc2c(C(=O)NCc3ccc4c(c3)OCO4)c[nH]n2c(=O)c1Cl,0.42
O=C(NCc1ccc2c(c1)OCO2)c1c[nH]c2ccc(S(=O)(=O)N3CCOCC3)cc2c1=O,2.4
Cc1ccccc1OCC(=O)Nc1cccc(NC(=O)c2ccco2)c1,-0.09
CC(=O)Oc1cc(OC(C)=O)c2c(-c3ccc([N+](=O)[O-])cc3)cc(=O)oc2c1,-0.35
COC(=O)c1ccc(C2C3=C(CC(c4ccco4)CC3=O)Nc3ccccc3N2C(C)=O)cc1 (configuration not stated),-0.62

# 15 successive entries already listed, quoted:
SMILES,Measles inh
CCN(CC#CC(O)(c1ccccc1)C1CCCC1)C(C)C (configuration not stated),0.21
Cc1cccn2c(=O)c3cc(C(=O)NCc4ccco4)c(=N)n(CC4CCCO4)c3nc12 (configuration not stated),-0.99
Cc1c(C(=O)Nc2ccccc2Cl)sc2ncn(Cc3ccccc3F)c(=O)c12,0.84
Cc1ccc(NC(=O)c2c(NC(=O)c3ccccc3)sc3c2CCC(C)C3)cc1 (configuration not stated),-0.68
O=C(O)CCSc1nc2ccccc2n1C1CCCCC1,-0.18
Cn1c(=O)[nH]c(=O)c2c1ncn2Cc1ccc(F)cc1,0.56
O=c1oc2cc(O)ccc2cc1-c1nc(-c2ccccc2)cs1,8.8
O=[N+]([O-])c1cccc(N2COc3ccc4ccccc4c3C2)c1,1.5
O=C(c1ccc(O)cc1)c1ccc(O)cc1O,-0.19
CCCOC(=O)C(C)Oc1ccc2c(=O)c(Oc3cc(C)cc(C)c3)c(C(F)(F)F)oc2c1 (configuration not stated),-0.82
O=C(NC1CCCCCC1)c1coc(=O)c2ccccc12,-0.73
O=C(Cc1nc2ccccc2[nH]1)NCc1ccccc1,0.27
CC(C)(C)C(=O)Nc1cccc(OC(F)(F)C(F)Cl)c1 (configuration not stated),-1.4
Cc1nc2c(C(=O)NCc3ccc4c(c3)OCO4)c[nH]n2c(=O)c1Cl,0.42
O=C(NCc1ccc2c(c1)OCO2)c1c[nH]c2ccc(S(=O)(=O)N3CCOCC3)cc2c1=O,2.4

# Remaining list, next part:
SMILES,Measles inh
O=C(OCCN1C(=O)c2cccc([N+](=O)[O-])c2C1=O)C1CCCCC1,1.1
CC(=O)N1CCc2cc(S(=O)(=O)CCC(=O)N3CCN(c4ccccc4Cl)CC3)ccc21,-1.6
C=CCN1C(=O)CC(c2ccccc2)=Nc2ccccc21,-0.65
Cc1ccc(S(=O)(=O)Nc2cc(C(C(=O)OC(C)C)C(=O)C(F)(F)F)c(O)c3ccccc23)c(C)c1 (configuration not stated),0.52
COCCCNC(=O)c1ccc2c(c1)nc(C)n2-c1ccc(Br)cc1,-0.99
O=C(CSc1oc(-c2cccs2)nc1S(=O)(=O)c1ccc(Br)cc1)NC1CCCCC1,0
O=C(CC1N=C2c3ccccc3N=C(SCc3cccc([N+](=O)[O-])c3)N2C1=O)NCc1ccc2c(c1)OCO2 (configuration not stated),0.58
COc1ccc(NC(=O)CCN2CCN(S(=O)(=O)c3cc(Cl)ccc3OC)CC2)cc1,0.14
O=C(NCC1CCCO1)c1nn2c(c1Cl)NC(c1cccs1)CC2C(F)(F)F (configuration not stated),-2
N#CC1(c2ccc(Cl)cc2)CCCC1,-0.16
COc1cc2c(cc1OC)C1C(C(=O)NCCN3CCOCC3)c3ccccc3C(=O)N1CC2 (configuration not stated),1.6
Cc1cc(C)nc(NS(=O)(=O)c2ccc(NC(=O)c3ccc(F)cc3)cc2)n1,-0.13
O=C(Nc1ccc(N2CCCC2)c(Cl)c1)c1ccc(Br)o1,-0.49
COc1ccccc1Cn1c(=S)[nH]c2cc(C(=O)N3CCCC3)ccc2c1=O,-0.13
COc1cc(NC(=O)c2noc3c2CCCCC3)c(OC)cc1Cl,-0.93
Cc1ccc(C)c(N2CCN(C(=O)c3ccc(Cn4c(=O)[nH]c5ccccc5c4=O)cc3)CC2)c1,0.12
O=C(Cn1c(=O)[nH]c2ccsc2c1=O)NCc1ccccc1Cl,1.1
CC(=O)OC1C(=O)c2ccccc2C(=O)C1OC(C)=O (configuration not stated),2.3
COC(=O)c1c(NC(=O)c2sc3ncn(C)c(=O)c3c2C)sc2c1CCCC2,-0.48
CC(C)[N+]1(Cc2ccccc2)C2=C(CN(C)CC2)c2ccccc21 (configuration not stated),0.54
O=C1c2ccccc2-c2oc(=O)c3ccccc3c21,0.35
CN(C)CCNC(=O)C12CCC3CC(CC(C3)C1)C2,2.3
CC(C)(C)c1ccc(C(=O)NCCOc2ccccc2F)cc1,-0.15

# These rows are one share of the data. The share of hits here may be higher or lower than overall.
